Screening results as filed in PubChem.
Vif A3G = inhibitors of Vif binding to APOBEC3G peptide, primary screen, biochemical, TR-FRET, GST-Vif 1-94, biotin-A3G peptide, dose response retest (AID 1117319) | TR-FRET GST-Vif / biotin-A3G peptide binding; higher % means a stronger effect; test concentration not given here; strong numbers were not always called active | inhibition, %; hits with a dose series show IC50 in µM | actives 0.57% (n = 260,000);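 active = above the screen mean plus three standard deviations and confirmed in dose response; inconclusive = results disagree or hit not tested in dose response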;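 note: Vif residues 1-94 fused to GST binding biotinylated APOBEC3G peptide 110-148; 0% = full assay without inhibitor and 100% = GST in place of GST-Vif; retest series ran down from 100 µM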
UCH37 inh = blocks the human deubiquitinase UCH37 | Q9Y5K5 | purified proteasome/UCH37, Ub-AMC cleavage fluorescence | inhibition, % (test concentration not listed) | actives 0.33% (n = 330,000) | AID 588478;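 active = mean of two replicates above 20%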;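 note: 0% = compound-free wells with enzyme and 100% = wells lacking proteasome; stock transfer was 100 nL into about 20 µL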
Target sequence (Q9Y5K5 whole entry, looked up): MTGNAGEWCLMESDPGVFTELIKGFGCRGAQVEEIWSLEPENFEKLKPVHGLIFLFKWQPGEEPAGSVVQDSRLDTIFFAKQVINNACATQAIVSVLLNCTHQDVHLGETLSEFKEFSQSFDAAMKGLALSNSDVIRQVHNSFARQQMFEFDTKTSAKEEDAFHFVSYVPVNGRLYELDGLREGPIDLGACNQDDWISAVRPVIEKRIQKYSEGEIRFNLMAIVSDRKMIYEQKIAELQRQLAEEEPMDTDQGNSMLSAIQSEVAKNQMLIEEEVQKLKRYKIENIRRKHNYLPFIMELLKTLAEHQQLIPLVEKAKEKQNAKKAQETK
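Assay system: Proteasome-bound UCH37. Buffer or medium: pH 7.4 Tris-HCl (50 mM) with ovalbumin, ATP-MgCl2, DTT. Incubation: 30 min preincubation with enzyme, 25 min cleavage at room temperature. Measured by: fluorescence, ex 355 nm, em 460 nm. Read-out basis: percent inhibition. Control set: wells without proteasome as full block, compound-free enzyme plus substrate as uninhibited.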
Ecoli growth = blocks Escherichia coli growth | OD600, 23 h; active compounds read low | OD600 absorbance (no concentration beside the values) | actives 0.21% (n = 330,000);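 active = OD600 absorbance below the run mean of sample wells minus 3.6 SD, in any replicate, cut at about 0.56 in these data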;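 note: stock transfer was 300 nL into about 60 µL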
A1 inh = inhibitors of the anti-apoptotic protein A1, read as caspase activation; MEF A1-2A-BIM cells, Caspase-Glo 3/7 luminescence, 3 h; percent of clofoctol response, vehicle zero; caspase activation, % (test concentration not listed); actives 0.066% (n = 330,000);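 active = over half of replicate activation scores above 10%, or exactly half above 10 with the replicate mean above 10; inconclusive = replicate mean below 10 yet half the replicates above 10; inactive = over half of replicates below 10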;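 note: wells of about 30 µL received 50 nL stock; many hits fall short of the cut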
LANA-H2B inh = blocks KSHV LANA binding to histone H2A/H2B; AID 2629; actives 0.6% (n = 320,000); Q9QR71; inhibition, % (concentration not given with the values); cell-free LANA-H2A/H2B peptide, fluorescence polarization; in the data active = inhibition mostly above about 10%, no sharp cut-off; inactive = mostly below about 6.7%;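 note: stock transfer was 7.5 nL into about 10 µL; 0% = median of vehicle wells and 100% = median of positive control wells; one replicate is shown; the record names a cut of 25% in any replicate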
HNF4A DNA FP = change in binding of human HNF4 alpha to DNA. P41235. HNF4a-FITC DNA binding, fluorescence polarization, 1 h. activity change, % at 10 µM. AID 1224865. actives 0.3% (n = 360,000); in the data active = activity change above about 30%, passing the limit was not always enough;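 note: controls were the assay level and a saturating level of protein; the project sought stronger binding though the title names inhibitors; some compounds called inactive have numbers as strong as hits; positive values seem to mean higher polarization but the record does not say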
Beta2AR agonist = human beta-2 adrenergic receptor agonism by FAP; P07550; Am2.2-beta2AR cells, FAP receptor internalization, flow cytometry; reference of the scale not given here; response, % (test concentration not listed); actives 0.43% (n = 340,000); AID 504454;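 active = response above a set limit, near 3 SD of response in nonfluorescent compounds, cut at about 42% in these data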;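 note: stock transfer was 100 nL into about 11 µL; a reference agonist was the positive control; negative values mostly stem from fluorescent compounds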
Target sequence (P07550 whole entry, looked up): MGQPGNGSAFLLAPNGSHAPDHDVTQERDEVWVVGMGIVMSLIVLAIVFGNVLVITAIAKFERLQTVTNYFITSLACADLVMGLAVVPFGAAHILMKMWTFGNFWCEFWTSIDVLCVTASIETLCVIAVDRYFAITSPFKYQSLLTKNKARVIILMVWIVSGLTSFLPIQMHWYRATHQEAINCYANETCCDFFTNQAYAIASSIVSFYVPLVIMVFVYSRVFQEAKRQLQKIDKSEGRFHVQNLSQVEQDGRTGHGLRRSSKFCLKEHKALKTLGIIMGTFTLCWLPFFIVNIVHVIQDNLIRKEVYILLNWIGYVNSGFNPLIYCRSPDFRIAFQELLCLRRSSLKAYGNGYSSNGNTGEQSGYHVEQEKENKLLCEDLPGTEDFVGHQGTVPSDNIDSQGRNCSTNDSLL
Active calls of the source: *; ? = inconclusive; · = no result given. Compounds were not picked by outcome; about 2.1% have a hit in one of these screens.

SMILES	Vif A3G	UCH37 inh	Ecoli growth	A1 inh	LANA-H2B inh	HNF4A DNA FP	Beta2AR agonist
CC1(C)Cc2nc3oc4c(=S)nc[nH]c4c3cc2CO1	-6%	13	0.66	0.2	3.5	1.9	7
CCOc1ccc(CC(=O)OCN2C(=O)c3ccccc3C2=O)cc1	-8%	1.7	0.69	0.4	4.3	-1.6	2
CC1CCN(S(=O)(=O)c2cn(C)c(=O)n(C)c2=O)CC1	4%	4.6	0.8	0.5	4.4	3.0	0
Cc1cc(OCC(=O)NNC(=O)c2ccncc2)cc(C)c1Cl	·	2.8	0.65	0.7	6.0	4.5	-1
Cc1ccc(S(=O)(=O)NNC(=O)c2cc([N+](=O)[O-])c(C)c([N+](=O)[O-])c2)cc1	·	0.2	0.7	-0.1	-0.8	-0.2	6
Cc1ccc(CNc2ncc(-c3ccc4c(c3)OCO4)n2C)cc1	29%	0.9	0.64	-0.2	2.7	-0.2	6
O=C(CNC(=O)OCc1ccccc1)Nc1ccc(F)cc1	-5%	3.1	0.65	0.0	7.1	-2.3	4
CC(=O)NCCc1ccc(O)cc1	·	0.1	0.75	0.1	-1.4	-2.4	0
COc1ccc(N(CC(=O)Nc2c(C)cccc2C)S(=O)(=O)c2ccccc2[N+](=O)[O-])c(OC)c1	-6%	-0.1	0.7	-0.4	-0.3	2.1	-5
Cc1cc(=O)[nH]c(N/N=C/c2c(C)oc3ccccc23)n1	·	·	·	-1.3	0.5	0.8	-2
O=C1COc2ccc(OCc3ccc(F)cc3)cc21	2%	3.7	0.67	-4.5	1.2	2.6	8
O=[N+]([O-])c1cccnc1N1CCC(c2cc(-c3ccc(Cl)cc3Cl)n[nH]2)CC1	2%	4.0	0.72	0.1	6.4	0.0	13
CS(=O)(=O)N(Cc1ccc(C(=O)N2CCc3ccccc3C2)cc1)c1ccccc1	0%	3.8	0.7	-2.6	1.4	0.8	-8
CCCCCCC(c1c(C)n(C)n(-c2ccccc2)c1=O)c1c(C)n(C)n(-c2ccccc2)c1=O	27%	1.8	0.71	0.1	3.3	-4.8	-14
Cc1ccc(NC(=O)CC2S/C(=N/N=C3\CCCc4ccccc43)NC2=O)cc1 (stereo not given)	-6%	·	·	0.1	-0.2	1.8	0
O=C1NC(c2cccc([N+](=O)[O-])c2)=CCN1c1ccccc1O	1%	3.6	0.67	0.4	2.3	0.2	-2
CC(Oc1ccc(Cl)cc1Cl)C(=O)NCc1ccncc1 (stereo not given)	6%	0.3	0.65	0.9	0.6	0.4	1
Cc1ccc(OCCNC(=O)CCNS(=O)(=O)c2ccc(Br)cc2)cc1	-2%	1.3	0.61	-0.1	-10	1.6	-4
CCOC(=O)Cc1cnc(NC(=O)NC(C(=O)OCC)(c2ccccc2)C(F)(F)F)s1 (stereo not given)	1%	2.1	0.61	0.0	4.8	-3.5	19
COC(=O)NC1c2ccccc2Oc2ccc(C)cc21 (stereo not given)	0%	0.6	0.63	0.7	-3.2	4.9	-4

Exported bar-delimited: 6 of the compounds above.
structure | Vif A3G | UCH37 inh | Ecoli growth | A1 inh | LANA-H2B inh | HNF4A DNA FP | Beta2AR agonist
CS(=O)(=O)N(Cc1ccc(C(=O)N2CCc3ccccc3C2)cc1)c1ccccc1 | 0% | 3.8 | 0.7 | -2.6 | 1.4 | 0.8 | -8
O=C1COc2ccc(OCc3ccc(F)cc3)cc21 | 2% | 3.7 | 0.67 | -4.5 | 1.2 | 2.6 | 8
CCOC(=O)Cc1cnc(NC(=O)NC(C(=O)OCC)(c2ccccc2)C(F)(F)F)s1 (stereo not given) | 1% | 2.1 | 0.61 | 0.0 | 4.8 | -3.5 | 19
O=C(CNC(=O)OCc1ccccc1)Nc1ccc(F)cc1 | -5% | 3.1 | 0.65 | 0.0 | 7.1 | -2.3 | 4
CCCCCCC(c1c(C)n(C)n(-c2ccccc2)c1=O)c1c(C)n(C)n(-c2ccccc2)c1=O | 27% | 1.8 | 0.71 | 0.1 | 3.3 | -4.8 | -14
Cc1ccc(NC(=O)CC2S/C(=N/N=C3\CCCc4ccccc43)NC2=O)cc1 (stereo not given) | -6% | · | · | 0.1 | -0.2 | 1.8 | 0

The results go on.
SMILES	Vif A3G	UCH37 inh	Ecoli growth	A1 inh	LANA-H2B inh	HNF4A DNA FP	Beta2AR agonist
O=C(NCc1ccccc1)C(c1ccncc1)N(C(=O)c1csnn1)C1CC1 (stereo not given)	-5%	2.3	0.71	0.2	3.9	1.9	3
OCCC1CN(Cc2cccc(-n3cccn3)c2)CCN1Cc1ccccc1 (stereo not given)	-7%	5.8	0.68	-0.1	-17	-2.9	-11
CC[N+]1=CN(c2ccccc2)C(C)=CC1(C)C	-3%	-0.4	0.67	0.7	-2.4	-1.3	5
COC(=O)C1=C(C(=O)OC)[C@@H]2N(C)c3ccccc3[C@@]23C[C@@H](CO)N(C(=O)c2cccs2)C3=N1	·	3.2	·	0.6	6.0	2.0	-1
COc1ccccc1CN1C(=O)c2cccc3cccc(c23)C1=O	·	-21	0.62	0.7	-6.2	-0.6	6
Cn1c(CCCNC(=O)c2cccs2)nc2ccccc21	-10%	1.9	0.7	-0.4	-6.1	12	-4
COC(=O)c1ccc(Oc2ccc(C(C)(C)C)cc2)c([N+](=O)[O-])c1	?	1.7	0.74	-0.4	0.4	-4.3	16
Fc1ccc2c(-c3cccc(C(F)(F)F)c3)c(-c3ccccc3)ncc2c1	·	2.4	0.7	-0.4	-3.4	7.8	0
CCN(CC)c1cc(C)c2cc(NC(=O)c3ccccc3F)ccc2n1	-5%	-0.5	0.65	0.4	4.3	4.2	9
O=C(CC(c1ccccc1)c1cc(Br)ccc1O)NCCN1CCOCC1 (stereo not given)	7%	6.0	0.69	0.3	6.5	0.4	-1
Cc1cc(C)c2nc(SCCc3ccccc3)nc(C)c2c1	6%	2.6	0.73	-0.1	1.9	-1.9	-6
COc1ccc(N2C(=O)CC(Sc3nc(C)cc(C)n3)C2=O)cc1OC (stereo not given)	·	4.1	0.75	0.8	-2.8	3.3	1
CN(CCC#N)c1ncnc2scc(-c3ccccc3)c12	12%	3.1	0.75	-0.1	-2.3	0.6	-4
CCn1c(CC(=O)Nc2ccccc2C)nnc1SCC(=O)NC1CCCC1	·	0.7	0.68	1.0	0.8	1.2	1
CCOc1c(Cl)cc(C(=O)NCCN2CCCCC2)cc1Cl	2%	0.5	0.64	-0.4	-6.0	1.6	-2
CC(=O)c1cccc(NC(=O)N2CCC(C(=O)c3ccc(F)cc3)CC2)c1	·	3.7	0.56	1.0	-3.4	-1.5	-7
CCC(C(=O)OC)n1cnc2scc(-c3ccc(C)cc3)c2c1=O (stereo not given)	·	3.4	0.71	0.6	-3.0	10	12
O=C1NC(=O)C(Cc2ccccc2)(c2cccnc2)N1 (stereo not given)	·	2.1	0.65	0.4	1.5	-0.5	3
COc1cc(C(=O)O)nc(OC)n1	-9%	-1.4	0.7	0.4	2.6	0.1	5
CCC1CCc2sc(C(=O)NC3CCN(Cc4ccccc4)CC3)cc2C1 (stereo not given)	-1%	2.8	0.65	-0.5	-0.6	0.7	15
CCOC(=O)C(=O)Nc1ccc(S(=O)(=O)Nc2ncccn2)cc1	8%	1.9	0.69	0.1	2.4	2.3	-3
COc1ccc(C2C(C(C)=O)=C(O)C(=O)N2CCc2c[nH]c3ccccc23)cc1 (stereo not given)	·	7.2	0.71	0.6	4.2	1.1	-2
COc1ccc(Cl)cc1N(CC(=O)NC(C)(C)C)S(=O)(=O)c1ccc(C)c([N+](=O)[O-])c1	·	5.6	0.68	-0.2	-0.2	1.4	-1
C=CCN1C=C2C(=O)C(C)(OC(=O)C3CCCC3)C(=O)C=C2C=C1c1ccsc1 (stereo not given)	22%	3.7	0.69	-0.2	5.2	-1.0	0
CC(C)CCN1C(=O)c2ccc(-c3nc4ccccc4c(=O)o3)cc2C1=O	?	-113	0.7	-0.7	-2.5	1.4	-1
COC(=O)CSc1cc(SCC(=O)OC)c(C#N)c(SCC(=O)OC)c1	-1%	0.4	0.7	0.4	-0.6	2.1	26
O=C(/C=C/c1ccc([N+](=O)[O-])cc1)NCCc1ccccc1	2%	3.6	0.74	-1.1	-0.1	-0.9	1
COc1ccc(Br)cc1S(=O)(=O)Nc1ncn[nH]1	-2%	0.7	0.67	0.5	1.8	0.9	-6
Cc1onc(-c2ccccc2)c1C(=O)Nc1nnc(C(C)C)s1	·	-0.7	0.7	0.0	4.2	-1.7	5
COc1ccc(C(=O)COC(=O)C(CC(C)C)N2C(=O)c3ccccc3C2=O)cc1 (stereo not given)	-1%	0.3	0.72	0.1	-3.2	-2.9	4
Cc1ccc(NC(=O)CS(=O)CC(=O)NC(C)CCc2ccco2)cc1Cl (stereo not given)	14%	2.7	0.7	0.2	7.9	-4.6	4
Cn1cc(Cl)c(C(=O)NC2CCCC2)n1	-2%	1.6	0.69	-0.4	3.7	-3.0	2
Nc1cc(-c2cccc([N+](=O)[O-])c2)[nH]n1	-9%	39*	0.7	0.1	2.0	0.8	10
O=C(O)c1c[nH]c(=S)n1-c1ccc(F)cc1	-3%	6.2	0.73	-0.2	3.6	1.8	-3
CC(C)CCN1C(Nc2ccccc2)=NC[C@@H]1CC(C)C	·	3.5	·	0.3	-2.9	-1.7	-3
Nn1c(COc2ccccc2)nnc1SCC(=O)O	3%	2.6	0.7	0.7	-1.8	-3.3	-2
Cc1cccc(N2CCN(C(=O)C3CCN(S(=O)(=O)N4CCOCC4)CC3)CC2)c1C	0%	0.7	0.65	-0.1	-2.9	-0.9	0
COc1ccc(C(=O)NC2(C(F)(F)F)N=C3SCCN3C2=O)cc1 (stereo not given)	5%	-2.0	0.72	-0.2	1.1	1.1	3
O=C(c1ccc(=O)oc1)N1CCN(c2ccc(F)cc2)CC1	12%	-16	0.75	0.1	-1.8	-3.0	-1
CCOc1ccc(N(C(=O)CNS(=O)(=O)c2ccccc2)C(CC)C(=O)NCc2ccco2)cc1 (stereo not given)	·	0.6	0.66	0.8	-3.8	-0.1	3
COc1ccc(N(CC(=O)NCc2ccco2)S(=O)(=O)c2ccc(C)cc2)cc1OC	·	0.6	0.68	-0.2	2.9	-2.6	1
O=C(CCSc1ccccc1)Nc1ccc(OCc2ccccc2)cc1	2%	2.6	0.75	-0.4	1.2	1.1	0
N#Cc1ccc(/C=N/NC(=O)c2cc(-c3cccs3)nc3ccccc23)cc1	·	·	·	2.5	-0.9	-4.1	11
COc1cc(OC)cc(C(=O)NC(=S)Nc2ccc(Cl)c(C(=O)O)c2)c1	3%	4.5	0.71	-1.3	0.0	4.7	8
CCOC(=O)C1=C(COC(=O)CSc2ccc(Br)cc2)NC(=O)NC1C (stereo not given)	-1%	-2.9	0.7	0.3	-1.5	0.0	6
Cc1cc(NC(=O)CSc2nc(-c3cccnc3)ccc2C#N)no1	-20%	-4.3	0.68	-0.2	1.5	1.1	3
CCOC(=O)Nc1ccc2c(c1)C(=NO)c1ccccc1-2	-5%	·	·	·	·	2.3	9
O=C(NC1CCCCC1)c1cccc(OCc2ccccc2)c1	-5%	0.3	0.73	0.4	0.3	-3.6	8
CC(C)c1ccc(NC(=O)CNC(=O)Cn2ccc3ccccc3c2=O)cc1	·	4.9	0.71	-0.4	3.0	5.7	-8
CCOP(=O)(OCC)/C(=N/OC(=O)c1ccccc1C)C(N)=O	1%	·	·	-0.7	-0.3	1.7	5
COc1ccc(C)cc1NC(=O)CCCNC(=O)Cn1cnc2sc(C)c(C)c2c1=O	·	1.9	0.64	0.3	-2.6	-2.0	-5
CC1=NN(/C(=N\c2nnc(C)s2)Nc2ccc(C)cc2)[C@H](c2ccc(C)cc2)S1	-6%	·	·	-0.2	1.5	-2.8	1
Cc1n[nH]c(=O)nc1N1CCc2ccccc2C1	6%	-2.0	0.71	0.3	0.6	1.3	9
